Screens (PubChem BioAssay)
Sa growth inh: blocks Staphylococcus aureus growth; S. aureus RN4220 growth, OD600, 20 h, 42 °C; stronger effect = lower value; relative growth, % (test concentration not listed); hit rate 0.53% among 170,000;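 active = growth at 42 °C up to 50% and 20 or more points under that at 30 °C, or under 10% at both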;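 note: 300 nL library stock went into each well; scaled to the means of positive and negative controls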
HCMV UL50-53 inh: cytomegalovirus nuclear egress complex inhibition. HTRF UL50-UL53 interaction, normalized percent inhibition. inhibition, % (concentration not given with the values). hit rate 0.15% among 190,000. AID 1918969;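 active = both replicates at 50% or more, plus weaker picks with an unusually low signal ratio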;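 note: stock transfer was 100 nL into about 20 µL; 0% = negative control wells and 100% = wells with untagged competitor protein; inactives centre near -12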
GIV-Gai inh: GIV-Galpha-i interaction inhibition | Galpha-i3/FITC-GIV peptide fluorescence polarization, 90 min; stronger effect = lower value; scaled: aluminum fluoride 0%, vehicle 100% | percent of control (FP), % (concentration not given with the values) | hit rate 0.42% among 210,000 | AID 1224905;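 active = replicate mean at 85% of control or lower, very high polarization wells dropped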;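 note: wells of about 15 µL received 100 nL stock; the first replicate is given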
Target sequence (P08753 whole entry, looked up): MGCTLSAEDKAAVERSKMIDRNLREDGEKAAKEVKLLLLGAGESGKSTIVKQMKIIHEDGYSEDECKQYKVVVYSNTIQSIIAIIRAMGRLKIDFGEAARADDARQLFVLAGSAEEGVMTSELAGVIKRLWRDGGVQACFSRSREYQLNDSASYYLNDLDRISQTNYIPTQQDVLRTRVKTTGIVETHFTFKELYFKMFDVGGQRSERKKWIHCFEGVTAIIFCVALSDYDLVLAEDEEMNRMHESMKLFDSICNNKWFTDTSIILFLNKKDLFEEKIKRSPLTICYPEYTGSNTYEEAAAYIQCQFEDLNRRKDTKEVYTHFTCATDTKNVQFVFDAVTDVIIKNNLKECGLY
Sa growth inh second temp: recorded beside Sa growth inh, whose call it bears; relative growth, %; measured here: growth at 30 °C;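 optical density after 20 h as mean of two plates; 100% = untreated growth and lower means inhibition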
* hit, by the source's call; nt = not tested or not shown; & = joins results of further samples. No enrichment for hits; about 0.79% have a hit in one of these screens.

SMILES	Sa growth inh	Sa growth inh second temp	HCMV UL50-53 inh	GIV-Gai inh
COc1ccc(C(=O)CSc2nc(C)cc(C)c2C(=O)Nc2ccccc2C)cc1	97	89	8	105
CCCC(C(=O)O)N1Cc2ccccc2C1=O (stereo unspecified)	96	91	nt	99
COc1ccc(O)c(/C=N/c2nc3ccccc3s2)c1	103	101	-14	97
O=c1[nH]c2ccccc2cc1CN(C1CCCCC1)S(=O)(=O)c1ccccc1	nt	nt	-19	100
C=CCC1(NCCO)CCCCC1	103	94	4	107
COCC(=O)N1N=C(c2cccc(NS(C)(=O)=O)c2)CC1c1ccccc1C (stereo unspecified)	84	90	nt	100
COc1ccc(OC)c(N/C=C(\C#N)c2nc(-c3cc4cc(Br)ccc4oc3=O)cs2)c1	nt	nt	-25	103
C/C=C(\C)c1nnc(NCC(C)(C)C)s1	101	95	nt	105
O=C(c1cccs1)c1coc2ccc(O)c(CN3CCOCC3)c12	94	81	-9	nt
Cc1nc2ccccc2c2oc(C(=O)NCCCN3CCCC3)cc12	112	100	6	112
CCCCSc1nc2sc3c(c2c(=O)n1-c1ccccc1C)CC(C)(C)OC3	114	98	-19	102
CCCSc1ncc(Cl)c(C(=O)Nc2ccc(OC)cc2OC)n1	92	95	3	102
CCCn1c2ccccc2c2cnn(CC(=O)NCCCOC(C)C)c(=O)c21	116	100	nt	106
CN1CCC(=NNC(=O)c2ccc3c(c2)NC(=O)C(C)(C)O3)CC1	103	83	-19	103
Cc1cccc(NC(=O)CCCN2C(=O)CCC2=O)c1C	120	66	-11	99
COc1ccc(C2c3cccn3CCN2C(=O)Nc2cccs2)cc1OC (stereo unspecified)	83	84	-44	133
CCCNC(=O)N1CC(O)CC1C(N)=O (stereo unspecified)	88	90	-6	nt
CC(=C1C(=O)c2ccccc2C1=O)N1CCc2ccccc2C1	81	19	nt	106
CN(C(=O)COc1ncnc2ccccc12)c1ccccc1	104	89	1	nt
CC(Sc1nnc(NC2CC2)s1)C(=O)Nc1ccc2c(c1)OCO2 (stereo unspecified)	104	93	-20	nt
CC(C)(C)OC(=O)N/N=C\c1ccco1	89	85	-46	98
CCOC(=O)C(C)c1ccc2cc(OC)ccc2c1 (stereo unspecified)	87	98	-5	100
Cc1cc(C)c(C2=NON3N(C(=O)c4cccs4)c4ccccc4N23)c(C)c1	101	97	nt	103
Cc1ccc(C)n1-c1cc(-c2ccccc2)[nH]n1	114	95	-10	100
Cc1cc(C)c(C)c(S(=O)(=O)N(C)C)c1C	89	100	-12	100

(cont.)
SMILES	Sa growth inh	Sa growth inh second temp	HCMV UL50-53 inh	GIV-Gai inh
CCc1cccc(C)c1NC(=O)CSc1nc2ccccc2n2cnnc12	nt	nt	-26	101
CN(C)c1cccc(C(=O)Nc2ccc(Br)cc2)c1	60	58	2	102
Cc1nc(SCC(=O)Nc2ccc3c(c2)OCCCO3)n(C2CCCCC2)c1C	109	90	-6	nt
CS(=O)(=O)n1cnc2ccccc21	93	93	-14	103&106
CCc1cc2c(NC3CCCCC3)ncnc2s1	92	62	-24	117
CCc1ccccc1NC(=O)C1=CC(c2ccc3c(c2)OCO3)=NS(=O)(=O)N1C	111	87	-33	106
N#CCc1ccc(NC(=O)Nc2ccccc2)cc1	99	81	-32	98
CCn1c(C)ccc(-c2noc(CCC(=O)Nc3nc(C)cs3)n2)c1=O	nt	nt	-2	104
Cc1nn(CC(=O)NCCc2ccc(S(N)(=O)=O)cc2)c(=O)c2cc3sccc3n12	nt	nt	9	98
CC1=C/C(=N\OC(=O)Cc2ccccc2)C(C)=CC1=O	56	50	-105	98
COc1ccccc1OCc1nc(-c2ccncc2)no1	97	75	-14	nt
Cc1c(S(=O)(=O)N2CCC(c3c(C)n(Cc4cccc(Cl)c4)c4ccccc34)CC2)cnn1C(F)F	nt	nt	-13	106
Cc1ccc(C(=O)Nc2onc3c2CC(C)CC3)cc1 (stereo unspecified)	nt	nt	4	107
COc1ccc(NC(=O)C(Cc2ccccc2)NS(=O)(=O)c2cccs2)c(OC)c1 (stereo unspecified)	111	87	-6	101
O=C(O)c1ccccc1-c1nc(-c2cccnc2)no1	90	86	2	101
Cc1ccc(Nc2nncc(=O)[nH]2)c(C)c1	nt	nt	-18	100
COC1(C(=O)NN)COc2ccccc2O1 (stereo unspecified)	89	114	nt	103
CCOc1ccc(N(CC(=O)Nc2ccccc2CC)S(=O)(=O)c2c(C)[nH]c(=O)[nH]c2=O)cc1	111	84	-24	103
Cc1ccc(N2CC(NC(=O)N(C)C3CCN(C)CC3)CC2=O)cc1C (stereo unspecified)	105	93	4	104
O=C(Nc1ccccc1Cc1ccccc1)c1cc2c(nc3sccn32)s1	113	87	-34	nt
CCS(=O)(=O)c1nc(S(=O)(=O)c2ccc(Cl)cc2)c(NCc2ccc(OC)cc2)s1	101	84	nt	103
Cc1cc(OC(=O)c2cc(-c3ccc4c(c3)OCCO4)on2)ccc1Cl	110	87	-3&-6	105&97
CCN1CCN(C(c2cccnc2)c2ccc3cccnc3c2O)CC1 (stereo unspecified)	55	40	nt	106
CCOC(=O)C1CCN(C(=O)CSc2n[nH]c(-c3ccc(OC)cc3)n2)CC1	109	101	nt	102
NC(=S)CS(=O)(=O)c1ccccn1	115	85	-38	106

(list continues)
SMILES	Sa growth inh	Sa growth inh second temp	HCMV UL50-53 inh	GIV-Gai inh
Cc1ccc(CN2CCN(CC(=O)NCCCN3CCN(c4cccc(Cl)c4)CC3)C2=O)cc1	107	71	-14	104
CCOc1ccc(-c2cc(NC(=O)c3cc4ccc5cccnc5c4[nH]3)on2)cc1OCC	96	84	-20	102
CCc1nc2cccnc2n1CCNC(=O)NC1CCCCC1	106	83	-9	106
NC(=O)c1ccccc1OC(C(=O)N1CCCC1)c1ccccc1 (stereo unspecified)	104	90	-4	nt
O=C(Nc1ccc2c(c1)OCCO2)n1ncc2ccccc21	nt	nt	-24	100
CCC(=O)N(c1nnc(SCC(=O)N2CCCC2=O)s1)C1CC1	101	95	14	nt
N#CCN1CCC/C1=C(/C#N)C(=O)c1ccccc1	96	103	0	97
O=C(O)Cn1ncc2c3ccccc3n(Cc3ccccc3F)c2c1=O	84	92	3	102
Cc1ccccc1NC(=O)N1CCN(c2ccc(=O)n(-c3ccc(F)cc3)n2)CC1	nt	nt	-39	104
CC(=O)c1ccc(NC(=O)C2Cc3ccccc3N2C(=O)c2ccccc2)cc1 (stereo unspecified)	99	101	nt	107
CCC1CCCCN1C(=O)CSc1n[nH]c(-c2ccccc2)n1 (stereo unspecified)	110	89	nt	102
O=C(CCCn1nc(-c2ccccc2)c2ccccc21)NCc1ccco1	80	74	nt	99
CCOn1c(=O)c(C)[n+]([O-])c2ccccc21	nt	nt	-110	99
CCOC(=O)C1=C(C)N=c2s/c(=C\c3cc([N+](=O)[O-])ccc3N3CCOCC3)c(=O)n2C1c1ccc(F)cc1 (stereo unspecified)	nt	nt	-18	74*
Cn1c(C(=O)N2CCCC2)cc2c(=O)n3ccccc3nc21	110	84	nt	101
Cc1ccc(-c2nc3cc(NC(=O)c4cc5ccccc5o4)ccc3o2)cc1Cl	104	98	6	102
Cc1ccnc(SC(=O)c2cccnc2)n1	76	95	3	nt
Cc1ccc(S(=O)(=O)N/N=C2\C3CN4CCN(C3)CC2(c2ccccc2)C4)cc1	108	86	5	104
Cc1c(OCC(=O)N(C)c2ccccc2)ccc2c3c(c(=O)oc12)CCC3	98	97	2	nt
COc1cccc(NC(=O)Cn2cnc3c(nc4n3CCCCC4)c2=O)c1	109	96	nt	106
CCc1oc2ccccc2c1C#N	94	93	-16	nt
CCn1c(/C(C#N)=C(\O)CCc2ccccc2)nc2ccccc21	104	91	-7	102
CC1(C)NC(=O)C(C#N)=C(SCc2ccccc2)S1	87	89	-10	97
CCOC(=O)c1cc2ccsc2n1CC(=O)N(C)C1CCCCC1	nt	nt	-8	110
C=CCn1c(SCC(=O)OCC)nc2c(c1=O)C1(CCCC1)Cc1ccccc1-2	nt	nt	14	108

Two compounds drawn at random from the list so far, as already listed:
SMILES	Sa growth inh	Sa growth inh second temp	HCMV UL50-53 inh	GIV-Gai inh
O=C(O)c1ccccc1-c1nc(-c2cccnc2)no1	90	86	2	101
CCCNC(=O)N1CC(O)CC1C(N)=O (stereo unspecified)	88	90	-6	nt

Another view of part of the listing above.
Order of values – Sa growth inh | Sa growth inh second temp | HCMV UL50-53 inh | GIV-Gai inh
- Cc1c(OCC(=O)N(C)c2ccccc2)ccc2c3c(c(=O)oc12)CCC3
→ 98 | 97 | 2 | nt
- Cc1ccc(S(=O)(=O)N/N=C2\C3CN4CCN(C3)CC2(c2ccccc2)C4)cc1
→ 108 | 86 | 5 | 104
- CCc1oc2ccccc2c1C#N
→ 94 | 93 | -16 | nt
- Cc1ccccc1NC(=O)N1CCN(c2ccc(=O)n(-c3ccc(F)cc3)n2)CC1
→ nt | nt | -39 | 104

The results go on.
SMILES	Sa growth inh	Sa growth inh second temp	HCMV UL50-53 inh	GIV-Gai inh
CCOc1ccc(C(O)C2CCNCC2)cc1 (stereo unspecified)	82	105	-17	105
CCc1ccc(S(=O)(=O)c2nnn3c2nc(NCc2ccccc2OC)c2cc(Cl)ccc23)cc1	109	83	-23	100
O=C(c1ccccc1)n1nc(-c2ccco2)nc1SCc1ccccc1	95	83	-17	105
O=C(O)CC(NS(=O)(=O)c1cccs1)c1ccccc1 (stereo unspecified)	90	92	-14	nt
CCOC(=O)c1[nH]c2ccc(F)cc2c1NC(=O)CN1CCCCC1	nt	nt	-14	104
Cc1ccc(C(=O)c2ccccc2C(=O)O)c(O)c1	106	116	10	104
COc1ccccc1NC(=O)Cn1c(=O)n(CCc2ccccc2)c(=O)c2c3c(sc21)CN(C(C)=O)CC3	115	79	-17	102
Cc1nc2ncccc2c(=O)n1-c1cccc(NC(=O)c2cccc(Cl)c2)c1	nt	nt	-5	103
O=C(CSc1nnc(-c2ccco2)n1Cc1ccccc1)NC1CCCc2ccccc21 (stereo unspecified)	96	96	-35	nt
CCOc1ccccc1NC(=O)CCN1CCN(S(=O)(=O)c2ccc(Br)cc2)CC1	90	93	nt	103
COc1ccc(C(=O)Nc2ccc3nc(NC(=O)c4ccccc4)sc3c2)c(OC)c1	nt	nt	-20	103
O=C(Cn1nc2n(c1=O)-c1ccccc1SC2)NC(=O)Nc1ccccc1	94	88	-25	106
Cc1onc(-c2c(F)cccc2Cl)c1C(=O)N=C(N)N1CCOCC1	93	81	-31	107
COc1ccc(NC(=O)c2ccco2)cc1NC(=O)c1ccccc1[N+](=O)[O-]	96	89	-76	101
O=C(c1nn2c(c1Cl)NC(c1cccs1)CC2C(F)(F)F)N1CCOCC1 (stereo unspecified)	121	81	-21	108
CCOC(=O)CSc1nnc2n1CCN2c1ccccc1	nt	nt	-32	105
COc1ccc(Cl)cc1NC(=O)c1cc2c(=O)oc3ccccc3c2n1C	nt	nt	-20	103
CCOC(=O)C1=C(C)N=c2s/c(=C/c3ccc(OC)c(OC)c3)c(=O)n2C1c1cccc([N+](=O)[O-])c1 (stereo unspecified)	nt	nt	-9	110
CCOc1ccc(NC(=O)CCc2c(C)nc3c(-c4ccccc4)c(C)nn3c2C)cc1	nt	nt	-8	110
O=C(CN1C(=O)COc2ccc(S(=O)(=O)N3CCOCC3)cc21)NCc1ccc(Cl)cc1	116	77	nt	110
C1=C(c2ccccc2)Nc2nnnn2C1	100	94	3	110
CC1(C)CC2CC(C)(CN2c2nc(N)c3c(N)nc4c(c3c2C#N)CC(=O)N4C2CCCC2)C1 (stereo unspecified)	98	91	-6	nt
CCCc1nn(-c2ccc(=O)[nH]n2)c(CCC)c1CC	97	88	-15	99
O=C(Cn1c(=O)c2cccn2c2ccccc21)NCCCN1CCCC1	107	101	17	104
Cc1ccc(S(=O)(=O)N(Cc2nc(-c3cccc(C)c3)no2)C2CCCCC2)cc1	111	88	-9	105

Ordered by the number under Sa growth inh second temp (falling): three from the list above.
mol | Sa growth inh second temp
COc1ccc(O)c(/C=N/c2nc3ccccc3s2)c1 | 101
CCc1ccccc1NC(=O)C1=CC(c2ccc3c(c2)OCO3)=NS(=O)(=O)N1C | 87
CN(C)c1cccc(C(=O)Nc2ccc(Br)cc2)c1 | 58

Carrying on:
SMILES	Sa growth inh	Sa growth inh second temp	HCMV UL50-53 inh	GIV-Gai inh
COc1cccc(NC(=O)Nc2cc(C(=O)O)ccc2N2CC3CC(C2)c2cccc(=O)n2C3)c1 (stereo unspecified)	100	105	12	99
CCc1c(C)nc2ncnn2c1N1CCC(C(=O)Nc2ccccc2)CC1	104	77	-8	104
CCN(C(=O)c1nn(-c2ccc(C)cc2)c(=O)c2c1c1ccccc1n2C)c1ccc(F)cc1	104	87	-16	99
CCC(CC)NC(=O)CCc1c(C)nc2nc(N)nn2c1C	89	88	-14	nt
O=C(c1ccccc1)c1ccc[nH]1	103&109	79&90	-2&-4	99&102
C=CCN(c1ccc(C(N)=O)cc1)S(C)(=O)=O	99	104	0	104
CCOc1cc(/C=C2\N=C(c3ccc(F)cc3)OC2=O)cc(Br)c1OC(C)=O	nt	nt	-30	103
c1nncn1/N=C1/CCCc2nonc21	130	54	-57	104
Cc1ccc(CN(C)C(=O)c2cccc(N(C)C)c2)o1	100	78	-27	nt
Cn1cccc1C(C#N)c1ccccc1C#N (stereo unspecified)	nt	nt	-15	103
CCN(CC)S(=O)(=O)c1ccc(C(=O)NC2CC(=O)N(c3ccc(OC)c(OC)c3)C2)cc1 (stereo unspecified)	120	91	nt	105
Cc1cc(N2CCN(C3CCCCC3)CC2)n2ncc(-c3ccc(F)cc3)c2n1	nt	nt	-17	104
